# gsp agonist: gsp mutant agonism. hit rate 0.13% among 340,000. gsp mutant cells, cAMP HTRF, 30 min; control for the full effect not named in the record. AID 624287. Potency, µM (highest dose often 76.9 µM), for the others: at the highest dose activation (cAMP increase), actives largely listed as activators; active = well fitted activation curve with a large enough effect; inconclusive = small, poorly fitted or top-dose-only effect, or another doubt; inactive = no such curve, though single readings can be large or run the other way; cell line not stated here;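 note: phosphodiesterase inhibitor Ro 20-1724 added with compounds to block cAMP breakdown; potency is the fitted concentration of half-maximal effect; nearly all actives have a fitted effect of over 60% in size; about a fifth of the inactives were tested at one dose only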
#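 Cells stably selected in G418 were plated at 2000/well, grown 16-24 hr, then given compounds in DMSO with the PDE inhibitor […] (300 uM solution added) for 30 min at 37C; cAMP was read by HTRF.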
# Sfp PPTase inh: Sfp phosphopantetheinyl transferase inhibition; Q9F4F7; Biochemical Sfp PPTase activity, qHTS; AID 1490; hit rate 3.5% among 310,000; Potency, µM, without a hit: max response, negative = inhibition, usual class: inhibitors; active = well fitted inhibition curve with a large enough effect; inconclusive = small, poorly fitted or top-dose-only effect, or another doubt; inactive = no such curve, though single readings can be large or run the other way;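 note: the enzyme is Sfp with the accession as filed and its product quenches rhodamine fluorescence; potency is the fitted concentration of half-maximal effect; 0% = enzyme reaction without inhibitor and -100% = no enzyme wells; top concentration of the series not given in the record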
#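 Reaction rates are the 30-min fluorescence difference (ex 525, em 598 nm) in wells containing 15 nM Sfp, 5 uM rhodamine-CoA and 12.5 uM BHQ-2-YbbR at pH 7.6 with 10 mM MgCl2.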
# gsp antagonist: antagonizes gsp, the McCune-Albright syndrome mutation; gsp-mutant cells, cAMP HTRF, 30 min; control for the full effect not named in the record; Potency, µM (series often up to 76.9 µM), without a hit: at the top dose activity change, negative = inhibition, actives largely listed as inhibitors; hit rate 0.4% among 340,000; active = falling curve of any shape with a large fitted effect; inconclusive = falling curve, mostly with a smaller effect; inactive = flat or rising curve; cell line not stated here;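 note: intracellular cAMP measured with PDE inhibitor Ro 20-1724 present during compound exposure; potency is the fitted concentration of half-maximal effect; % is set by controls: 0 for no effect and ±100 for the full control effect; nearly all actives have a fitted effect of over 65% in size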
#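 Measurement of cellular cAMP by homogeneous time-resolved fluorescence following a 30 min compound exposure at 37C. The PDE inhibitor […] was present throughout; the assay buffer was DPBS with 0.05% BSA and 0.005% Tween 20.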
# ClpP mod: qHTS Assay for Activators of ClpP. hit rate 1.9% among 340,000. ATP-dependent Clp protease proteolytic subunit (Bacillus subtilis (strain 168)), P80244. purified B. subtilis ClpP, FRET peptide cleavage, 20 min. Potency, µM (highest dose often 57.5 µM), for the others: at the highest dose activity change, negative = active; active = well fitted falling curve with a large enough effect; inconclusive = small, poorly fitted or top-dose-only effect; inactive = no such curve, though single readings can be large or run the other way; note: potency is the fitted concentration of half-maximal effect; the source files actives as falling curves though it sought activators and does not explain the sign; nearly all actives have a fitted effect of over 65% in size; many hits overshoot -100%
# Target sequence (P80244 whole entry, looked up): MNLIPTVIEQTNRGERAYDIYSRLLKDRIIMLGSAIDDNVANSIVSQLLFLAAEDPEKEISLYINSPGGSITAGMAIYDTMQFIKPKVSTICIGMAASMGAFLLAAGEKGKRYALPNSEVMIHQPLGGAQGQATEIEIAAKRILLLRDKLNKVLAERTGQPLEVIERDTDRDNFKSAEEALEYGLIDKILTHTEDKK
#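 Buffer: 100 mM Tris/HCl pH8, 100 mM KCl, 0.05% low protease BSA, 2.5% glycerol, 0.01% Tween-20. ClpP 10 microg/mL final; 20 min RT; delta FRET normalized to ADEP and DMSO controls.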
# TRPML1 blocker: inhibitors of human TRPML1 channel. hit rate 0.02% among 390,000. AID 624415. activity change, negative = inhibition, % (test concentration not listed). TRPML1-inducible cells, Ca2+ dye fluorescence, FDSS; active compounds read low; inhibition of EC80 agonist-evoked calcium signal; in the data active means activity change below about -50%; inconclusive means about -30% to -50%; inactive means above about -30%;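 note: stimulus is agonist 54-4 at its EC80 concentration; % is set by controls: 0 for no effect and ±100 for the full control effect; compound concentration not given in the record; the text of the record puts the active cut at -80%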
#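 TRPML1-DL cells, Tet-induced overnight (~16 h, 37 °C) at 1,500 cells/well, were loaded with Ca8 no-wash dye plus quencher for 45-90 min at room temperature. Compounds were pinned during FDSS kinetic reading; agonist 54-4 at EC80 (4 uM final) then added.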
# Menin MLL FP FL: menin-MLL binding inhibition, fluorescein peptide; Fluorescence polarization, fluorescein-MLL peptide displacement from menin; FP activity change, % at 61.4 µM; 290,000 tested, under 10 active; inconclusive = falling polarisation curve, or a change in total fluorescence; inactive = total fluorescence flat and polarisation flat or rising; no compound was filed as active; the % refers to the polarisation; negative = inhibition;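 note: % of control where 0% means no effect; inhibitors lower the polarisation; unlabelled MLL peptide was the positive control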
# TRPV1 PAM: potentiators of human vanilloid receptor 1 (TRPV1); Q8NER1; TRPV1-expressing cells, Fluo-8 calcium influx, capsaicin EC20 potentiation; host cell line not named in the record; control for the full effect not named in the record; potentiation, % at 8.33 µM; hit rate 0.02% among 320,000; active means potentiation above 80%; inconclusive means 30% to 80%; inactive means below 30%; note: 0% is about no effect
# Target sequence (Q8NER1 whole entry, looked up): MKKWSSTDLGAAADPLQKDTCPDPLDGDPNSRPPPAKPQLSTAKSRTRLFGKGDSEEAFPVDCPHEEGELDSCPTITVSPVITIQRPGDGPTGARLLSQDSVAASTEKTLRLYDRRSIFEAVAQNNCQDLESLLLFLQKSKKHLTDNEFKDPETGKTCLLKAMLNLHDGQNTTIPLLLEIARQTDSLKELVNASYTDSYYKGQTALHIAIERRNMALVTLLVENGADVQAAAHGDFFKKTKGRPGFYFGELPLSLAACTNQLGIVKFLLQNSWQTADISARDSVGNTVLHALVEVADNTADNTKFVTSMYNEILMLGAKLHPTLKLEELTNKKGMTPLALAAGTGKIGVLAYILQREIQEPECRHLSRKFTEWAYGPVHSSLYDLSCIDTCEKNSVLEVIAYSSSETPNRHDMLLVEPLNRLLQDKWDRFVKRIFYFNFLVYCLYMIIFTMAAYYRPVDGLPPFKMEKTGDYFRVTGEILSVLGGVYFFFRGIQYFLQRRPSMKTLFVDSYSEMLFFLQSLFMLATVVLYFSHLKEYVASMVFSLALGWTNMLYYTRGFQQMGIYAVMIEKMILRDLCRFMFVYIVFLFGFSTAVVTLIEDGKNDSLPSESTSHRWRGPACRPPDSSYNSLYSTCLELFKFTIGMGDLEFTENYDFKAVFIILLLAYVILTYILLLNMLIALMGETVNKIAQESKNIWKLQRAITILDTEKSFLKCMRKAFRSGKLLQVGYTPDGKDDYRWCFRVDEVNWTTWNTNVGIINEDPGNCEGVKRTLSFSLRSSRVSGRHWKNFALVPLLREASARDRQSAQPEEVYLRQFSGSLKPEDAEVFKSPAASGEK
#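 TRPV1-expressing cells were cultured overnight at 35.5C and loaded with Fluo-8 calcium dye for 40 to 90 min at room temperature. After a 10 s baseline, compound was added and calcium influx was read kinetically for 3 min (ex 480/em 520 nm).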
# An asterisk follows results filed as active; u = inconclusive; x = no result given; & = joins results of further samples; ! = not confirmed by another sample; [ ] = dose if it differs, or a comment.
# Every second line gives: gsp agonist	Sfp PPTase inh	gsp antagonist	ClpP mod	TRPML1 blocker	Menin MLL FP FL	TRPV1 PAM
> COc1ccccc1NC(=O)C1CCN(C(=O)C2CC(=O)N(c3ccc(C)cc3)C2)CC1 (configuration not stated)
    -1%	13%	-1%	x	1	x	4
> CC1CC(C)CN(C(=O)COC(=O)c2ccc3c(c2)C(=O)N(Cc2ccco2)C3=O)C1 (configuration not stated)
    23%	x	-18%	0.8%	2	x	-7
> Clc1ccc(SCCn2cncn2)cc1
    -6%	-4%	12%	0.7%	8	0.2	-1
> CN(CC(=O)NCc1ccccn1)S(=O)(=O)c1cc(Cl)ccc1Cl
    -35%[inhibitor]	x	3%	-1.0%	9	x	-10
> Cn1cccc1Cc1nnc(SCC(=O)Nc2ccc(F)cc2)n1CCc1ccccc1
    6%	-3%	8%	11%	2	3.7	-2
> CCN(CC)CCN(C(=O)c1ccc2c(c1)CCCC2)c1nc2c(OC)cccc2s1
    -84%[inhibitor]	x	x	-5.2%	-8	x	x
> OCCN1CCN(c2cc(C(F)(F)F)nc3c(F)cccc23)CC1
    -1%	11%	0%	0.5%	-27	1.5	5
> COc1ccc(Nc2nc(NCCCN3CCOCC3)nc(N)c2[N+](=O)[O-])cc1
    5%	4%	9%	x	-18	-8.5	7
> Cc1ccc(OCC(=O)N(Cc2ccccc2)C2CCS(=O)(=O)C2)c([N+](=O)[O-])n1 (configuration not stated)
    -18%	20%	9%	-1.9%	-18	1.7	-13
> CCCCOC(=O)Cn1c(=O)n(CC(=O)OCCCC)c2ccccc21
    2%	20%	-1%	1.6%	6	2.8	-21
> COC(=O)c1ccc(OCC(=O)c2ccccc2)cc1
    -14%	7%	-15%	0.8%	-13	1.6	-11
> CCOC(=O)CSc1nc(-c2ccncc2)ccc1C#N
    -21%	15%	-10%	u	9	4.1	-6
> O=C(NNC(=O)C1CCCN(c2ncccn2)C1)c1ccncc1 (configuration not stated)
    18%	7%	1%	-11%	-8	2.4	2
> CC(=O)c1ccc(OCc2cc(C(=O)N(C)Cc3ccon3)no2)cc1
    -40%[inhibitor]	3%	-2%	-4.9%	-10	x	3
> COC(=O)c1ccccc1NC(=O)Nc1ccc(C(=O)N2CCCC2)cc1
    -30%[inhibitor]	11%	9%	u	0	0.6	2
> CCOC(=O)c1sc(NCc2ccco2)c(-c2nc3ccccc3s2)c1N
    -41%[inhibitor]	u	u	-0.7%	12	7.3	1
> CCc1nc(SCC(=O)c2ccccc2)c2ccccc2n1
    12%	-11%	-10%	x	9	1.0	1
> CCN(CC)CC(C)CNC(=O)C1(O)c2ccccc2NC(=O)N1c1ccc(Cl)c(Cl)c1 (configuration not stated)
    -3%	14%	-9%	0.6%	-15	-1.4	-8
> Cc1nc2ccccc2n1/N=C/c1ccc([N+](=O)[O-])o1
    -8%	x	-3%	0.4%	-2	x	x
> CCC(C)(C)NC(=O)CN(Cc1cccs1)C(=O)CCC(=O)Nc1nccs1
    -7%	20%	-5%	0.4%	11	6.1	11
> COc1ccccc1C(=O)Nc1ccc(-c2nnn(CC(=O)N3CCN(C(=O)c4ccco4)CC3)n2)cc1
    8%[15.4 µM]	12%	-22%	x	-14	2.1	-9
> CSc1ccc(NC(=O)C(C)N2CCN(C)CC2)cc1 (configuration not stated)
    -19%	-21%	11%	0.4%	5	3.4	7
> COc1ccc(CCNC(=O)CN(c2ccc(OC)c(OC)c2)S(C)(=O)=O)cc1OC
    3%	21%	2%	0.1%	6	0.0	-2
> CCN1C(=O)[C@H]2[C@@H](c3ccc(-c4ccc(Cl)c(Cl)c4)cc3)N3CCCC[C@@]3(C(=O)OC)[C@H]2C1=O
    -4%	x	3%	-7.1%	7	x	-65
> NC(=O)CC(NC(=O)c1cccc(Br)c1)c1ccc(N2CCC(N3CCCC3)CC2)c([N+](=O)[O-])c1 (configuration not stated)
    x	12%	7%	3.1%	16	-2.6	-10
> CC(C)C1NCCc2c1sc1ccccc21 (configuration not stated)
    -1%[15.4 µM]	x	12%	0.2%	7	x	x
> O=S(=O)(Nc1cccc(-c2cn3cccnc3n2)c1)c1ccc(F)cc1
    -22%	7%	7%	4µM*	-3	6.3	3
> Cc1ccc(N(O)C(C)(C)C)cc1
    14%	x	12%	-0.8%	43	x	x
> COc1ccccc1Nc1nc(-c2sc(N)nc2C)cs1
    -2%	50µM*	-4%	2.4%	-6	u	-3
> CC(c1ccccn1)C(C)(O)C(C)c1ccccn1 (configuration not stated)
    0%[15.4 µM]	x	6%	-0.7%	28	x	x

# The final 2 compounds of the section before are carried over, then new ones follow.
# Every second line gives: gsp agonist	Sfp PPTase inh	gsp antagonist	ClpP mod	TRPML1 blocker	Menin MLL FP FL	TRPV1 PAM
> COc1ccccc1Nc1nc(-c2sc(N)nc2C)cs1
    -2%	50µM*	-4%	2.4%	-6	u	-3
> CC(c1ccccn1)C(C)(O)C(C)c1ccccn1 (configuration not stated)
    0%[15.4 µM]	x	6%	-0.7%	28	x	x
> Cc1cc(C)c(-c2csc(NC(=O)C3=COCCO3)n2)cc1C
    -5%[15.4 µM]	x	u	-1.9%	3	x	-6
> Cc1ccc(NC(=O)COC(=O)c2cccnc2)c(C)c1
    -21%	18%	-11%	-1.4%	27	0.8	5
> COC(=O)c1sc(NC(=O)CN2CCN(c3cccc(Cl)c3)CC2)c(C(=O)OC)c1C
    8%	x	-4%	-6.2%	-8	x	x
> Cc1ccc(S(=O)(=O)NNC(=O)c2sc3nc(C)cc(C)c3c2-n2cccc2)cc1
    u	-1%	-16%	-0.2%	7	5.4	3
> COc1ccc(-c2cn(-c3ccccc3)c(=S)[nH]2)cc1OC
    u	u	4%	-7.7%	-12	5.3	3
> CC(C)C[C@@H](CNCC(=O)[C@H](Cc1c[nH]c2ccccc12)NC(=O)c1[nH]cnc1C(=O)N[C@H](CN)CC(C)C)NC(=O)c1nc[nH]c1C(=O)N[C@@H](CC(=O)O)C(=O)O
    x	x	4%	-10.0%	-12	x	x
> COC/C=C/C1=CC2=CC(=O)C(C)(OC(=O)CCC(=O)OC)C(=O)C2=CO1 (configuration not stated)
    x	56µM*!	x	x	x	u	20
> Cc1ccc(OCc2nc(-c3ccccn3)n[nH]2)cc1
    u	-2%	9%	0.8%	6	0.2	-5
> Cc1ccccc1CN(C)C[C@@H]1OCc2cnnn2CCCC(=O)N([C@@H](C)CO)C[C@H]1C
    -44%[inhibitor]	x	x	-0.5%	5	x	x
> O=C(C1CCN(S(=O)(=O)c2ccc(Cl)s2)CC1)N1CCN(c2ccccc2)CC1
    0%	x	-4%	-0.7%	-7	x	x
> CCOC(=O)C(=O)Nc1ccc(S(=O)(=O)Nc2nccs2)cc1
    20%	5%	-3%	1.2%	9	0.1	-6
> COc1ccc(CCNC(=O)CSc2ccc(-c3cccs3)nn2)cc1OC
    -16%[15.4 µM]	17%	-5%	x	-2	-7.6	-3
> Cc1ccc(-c2cccc(C3CC=CC4C3C(=O)N(Cc3ccccc3)C4c3ccc(C(F)(F)F)cc3)c2)cc1 (configuration not stated)
    x	4%&13%	10%	-15%	19&0	3.8&3.1	29
> CS(=O)(=O)c1ccc(Oc2ccc(-c3nnco3)cc2)c([N+](=O)[O-])c1
    -14%	8%	2%	x	30	-0.8	23
> CC(C)Cn1c(CN2CCCCC2C)nc2c1c(=O)n(C)c(=O)n2C (configuration not stated)
    -28%	30%[activator]	6%	-0.8%	20	5.1	-8
> O=C(NCC1CCCN1S(=O)(=O)c1cccs1)C(=O)Nc1ccc(F)cc1F (configuration not stated)
    3%	x	3%	-3.2%	5	x	-12
> Cc1cccc(Nc2nnc(SC3CCOC3=O)s2)c1C (configuration not stated)
    -1%	12%	4%	1.3%	11	2.3	-7
> CCCN1CCN(C(=S)Nc2ccc(S(N)(=O)=O)cc2)CC1
    -16%	0%	0%	x	-9	0.5	4
> Cc1ccc(-c2cc(N)n(-c3ccccc3)n2)cc1
    -28%	1%	0%	-8.1%	5	-0.3	15
> O=c1[nH]c2ccc(NC(=S)Nc3ccccc3)cc2[nH]1
    6%[15.4 µM]	u	6%	x	9	-2.3	5
> O=C(Nc1ccccc1C(=O)O)c1cc(S(=O)(=O)N2CCCCC2)c(Cl)cc1Cl
    -2%[15.4 µM]	13%	u	x	15	-1.2	2
> CCOC(=O)c1sc(=S)n(CC)c1NC(=O)CC
    -43%	-8%	6%	-2.4%	35	-2.1	0
> CC1=C(C#N)C(c2ccoc2)C(C(=O)OCc2ccccc2)=C(N)S1 (configuration not stated)
    20%	-28%	-7%	1.1%	-2	7.4	-5
> CCN(C(=O)CCNC(=O)Cn1cnc2ccccc2c1=O)c1ccccc1F
    1%[15.4 µM]	4%	8%	x	2	-4.9	19
> CCOc1ccc(S(=O)(=O)NCCC(=O)N(C)Cc2ccc(C)o2)cc1
    3%	x	3%	1.5%	2	x	-4
> O=C(Cn1cc2c(n1)CCCCC2)NCc1cccs1
    8%	9%	10%	2.7%	-7	-3.0	3
> CC(Sc1nnc(-c2ccc(OC(F)F)cc2)o1)C(=O)NCC1CCCO1 (configuration not stated)
    -29%	10%	-8%	-0.9%	0	0.6	7
> CC(C)(C)OC(=O)NCCCC[C@H](NC(=O)c1[nH]cnc1C(=O)N[C@@H](Cc1ccccc1)C(=O)OC(C)(C)C)C(=O)OC(C)(C)C
    x	36%[activator]	7%	0.6%	-4	0.5	19
> CCCCCCCCCCC(C)(C)C(=O)Nc1c(OC)cc(OC)cc1OC
    x	4%	x	0.1%	x	-2.0	x
> COc1ccc(N(CC(=O)NCc2ccc(F)cc2)S(=O)(=O)c2c(C)n[nH]c2C)cc1
    u	15%	5%	-2.3%&0.9%	-10&15	0.2	-7
> COc1ccccc1NS(=O)(=O)c1cc(NC(=O)c2ccccc2[N+](=O)[O-])ccc1N1CCOCC1
    -5%	x	-9%	x	-9	x	x

# Assay outcomes as filed in PubChem BioAssay.
